Screening data from PubChem BioAssay.
HCMV NEC inh = inhibitors of HCMV UL50-UL53 interaction, biochemical, HTRF; normalized percent inhibition; inhibition, % (concentration not given with the values); 0.15% of 190,000 active;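 active means both replicates at 50% or more, plus weaker picks with an unusually low signal ratio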;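 further: stock transfer was 100 nL into about 20 µL; 0% = negative control wells and 100% = wells with untagged competitor protein; inactives centre near -12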
Sa growth 42C = S. aureus growth inhibition at 42 and 30 °C, primary screen, LtaS inhibitor project, RN4220, two temperatures; OD600, 20 h, 42 °C; stronger effect = lower value; relative growth, % (no concentration beside the values); 0.53% of 170,000 active;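 active means growth at 42 °C up to 50% and 20 or more points under that at 30 °C, or under 10% at both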;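 further: 300 nL library stock went into each well; scaled to the means of positive and negative controls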
GIV Gai3 FP = inhibitors of GIV peptide binding to Galpha-i3, primary screen, biochemical, fluorescence polarization, FITC-GIV GBA peptide, rat Galphai3; Guanine nucleotide-binding protein G(i) subunit alpha-3 (Rattus norvegicus), P08753; 90 min; stronger effect = lower value; scaled: aluminum fluoride 0%, vehicle 100%; percent of control (FP), % (test concentration not listed); 0.42% of 210,000 active;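 active means replicate mean at 85% of control or lower, very high polarization wells dropped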;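 further: wells of about 15 µL received 100 nL stock; the first replicate is given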
Target sequence (P08753 whole entry, looked up): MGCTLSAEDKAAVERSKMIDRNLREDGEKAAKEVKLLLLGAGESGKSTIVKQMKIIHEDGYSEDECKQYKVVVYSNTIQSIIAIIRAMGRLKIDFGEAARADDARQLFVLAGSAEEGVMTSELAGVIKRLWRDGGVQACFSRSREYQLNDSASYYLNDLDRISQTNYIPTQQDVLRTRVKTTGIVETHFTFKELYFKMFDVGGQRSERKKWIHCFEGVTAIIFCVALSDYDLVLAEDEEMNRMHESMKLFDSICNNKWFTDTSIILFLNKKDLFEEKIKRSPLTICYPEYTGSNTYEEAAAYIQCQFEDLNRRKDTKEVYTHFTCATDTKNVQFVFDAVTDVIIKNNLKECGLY
Sa growth 42C second temp = further read-out of Sa growth 42C, marked with its call; relative growth, %; measured here: growth at 30 °C;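 optical density after 20 h as mean of two plates; 100% = untreated growth and lower means inhibition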
The depositor's hits bear a star; . = no result given; & = joins results of further samples.

SMILES	HCMV NEC inh	Sa growth 42C	Sa growth 42C second temp	GIV Gai3 FP
Cn1cc(C(CNC(=O)Nc2ccccc2F)c2cccnc2)c2ccccc21 (configuration not stated)	-22	.	.	98
Cc1ccc(S(=O)(=O)c2nc3ccccc3nc2NCCc2ccccc2)cc1	-24	.	.	78*
O=C(NC1CCCC1)C1CCN(c2nccn3nc(-c4ccccc4)cc23)CC1	-19	.	.	101
COc1ccc(N2CC(C(=O)OC(C)C(=O)c3ccccc3)CC2=O)cc1 (configuration not stated)	-4	115	88	.
COc1ccc(-c2nnc(SCC(=O)Nc3cccc(C(F)(F)F)c3)nc2-c2ccc(OC)cc2)cc1	.	112	103	102
Cc1ccc(-c2cn3c(n2)sc2cc(C(=O)NC4CCCc5ccccc54)ccc23)cc1 (configuration not stated)	.	115	68	110
CCOC(=O)CSc1nc(-c2ccc(C)cc2)ns1	.	110	94	101
CCCn1c(=O)c2c(C(=O)NCCC3=CCCCC3)cc(=O)n(CCC)c2n(C)c1=O	-28	.	.	107
CCc1cnc2c(c1SC(C(C)=O)C(=O)N(C)C)c(=O)n(C)c(=O)n2C (configuration not stated)	.	124	86	105
C#CCNc1nc(CC(C)C)nc2c1nnn2Cc1ccccc1	-13	98	80	102
O=C(CO/N=C/c1ccccc1OC(F)F)N1CCCc2ccccc21	-25	93	84	.
Cc1cccc(NC(=O)NCC(c2ccco2)N2CCc3ccccc3C2)c1 (configuration not stated)	-7	109	83	104
O=C(NC1CCCC1)C1CCCN1C(=O)OCc1ccccc1 (configuration not stated)	.	117	92	108
CC(=O)c1ccc(N2CCN(c3ccc(NC(=O)c4cccs4)cc3C(=O)O)CC2)cc1	.	93	84	98
COc1ccccc1N1CCN(c2nc(-c3ccc(C)cc3)nc3ccccc23)CC1	.	113	89	104
CN(C)S(=O)(=O)c1ccc(C(=O)OCC(N)=O)cc1	-24	101	93	.
Cc1ccc2c(c1)cc(C(=O)NCC1CCCO1)n2C (configuration not stated)	-10	.	.	98
CCOc1ccc(NC(=O)Cn2c(=O)oc3cc(S(=O)(=O)N4CCC(C)CC4)ccc32)cc1	4	128	96	98
O=C(c1ccccc1)N1CCN(C2CCCCC2)CC1	13	99	112	107
CCCN(CCC)C(=O)c1c[nH]c2ccc(S(=O)(=O)N(CC)c3ccc(F)cc3)cc2c1=O	3	104	83	107
Cc1ccc(C)c2[nH]c(=O)c(CCNC(=O)CC(C)(C)C)cc12	-38	87	83	104
Cc1ccccc1-c1ccc(N2CCCC(C(=O)N(CC(C)C)CC(C)C)C2)nn1 (configuration not stated)	-22	.	.	104
Cc1cc(C)c2nc(SCC#N)cc(C)c2c1	36	100	91	.
NC(=O)CC(=O)c1ccccc1	14	89	92	107
O=c1oc2ccccc2c(N2CCN(c3ccc(F)cc3)CC2)c1CN1CCCC1	-1	113	96	105
O=C(NC1(C(F)(F)F)Oc2ccc(Cl)cc2O1)N1CCCCC1 (configuration not stated)	.	84	79	95
Cc1nc(SCc2ccc(C#N)cc2)c(C#N)c(-c2ccco2)c1C(=O)N(C)C	-23	75	85	.
COCCN=C1SC(C(=O)Nc2cccc(C#N)c2)C(N)=C1C(=O)N1CCN(C)CC1 (configuration not stated)	-4	94	89	.
Cc1ccc2c(c1)N(C(=O)Nc1cccc3c1CCCC3)CCO2	-10	113	99	103
O=c1c(C2SCCS2)coc2ccccc12	0	111	92	99
Cc1cccc(NC(=O)Nc2c(C)n(C)n(-c3ccccc3)c2=O)c1	-9	.	.	99
CCc1cc(=O)oc2c(C)c3occ(-c4ccc(Cl)cc4)c3cc12	.	89	96	100
Cc1cc2c(cc1S(=O)(=O)N1CCCC(C(=O)NC(C)C)C1)OCC(=O)N2 (configuration not stated)	-22	.	.	100
CCOC(=O)c1noc2c1COc1ccccc1-2	-27&-71	100	85	104&103
O=C1c2ccccc2C(=O)N1CCSc1ncnc2c1cnn2-c1ccccc1	-15	102	92	103
CCCN1CCN(C(=O)c2cn(C)c(=O)c3cc(OC)c(OC)cc23)CC1	-5	81	95	102
CC(C)N1C(=O)S/C(=C/c2ccc(Sc3nc4ccccc4[nH]3)o2)C1=O	.	91	91	131
Cc1ccc(C(=O)Nc2nc3ccc(S(=O)(=O)N4CCCC4)cc3s2)cc1	.	94	90	102
CCCc1nc2ccccc2c(NC(=O)CN(CC)CC)c1CC	-21	84	102	91
COc1ccc(NC(=O)CCc2cc(OC)c(OC)c(OC)c2)cc1	.	124	89	106
CC1CC(C)CN(C(=O)Cn2ncc3ccc(Cl)cc32)C1 (configuration not stated)	-9	91	90	104
CN1CCc2nc(NC(=O)c3cccc(F)c3)sc2C1	13	.	.	97
CCc1ccc(S(=O)(=O)Nc2ccc3c(c2)n(C)c(=O)c(=O)n3C)cc1	.	82	86	102
COc1ccc(N2C(=O)c3cc4ccsc4n3CC2(C)C(=O)NC2CCCC2)cc1Cl (configuration not stated)	-3	.	.	106
Cc1cc(C(F)(F)F)nc(NCCc2ccccc2)n1	4	150	113	110
O=C(Cn1ccc2ccccc2c1=O)NCC(=O)NC1CCCCCC1	.	99	86	96
COCCN1C=C(C(=O)OC)C(c2cccs2)C(C(=O)OC)=C1	-18	98	94	.
CCOC(=O)c1c(C)n(-c2ccccc2)c2ccc(OC(=O)c3cccs3)cc12	-8	.	.	103
COc1cc(OC)cc(-c2nc(C(N)=O)c3c(n2)n(-c2ccc(F)cc2)c(=O)n3C)c1	-21	.	.	103
COc1cc(C#N)ccc1OCC(=O)N(C)CC(=O)Nc1ccc(F)cc1	-15	98	94	.
Continued.
SMILES	HCMV NEC inh	Sa growth 42C	Sa growth 42C second temp	GIV Gai3 FP
N#CC1=C(SCC(=O)Nc2ccc(Br)cc2)NC(=O)CC1c1ccc(F)cc1 (configuration not stated)	-5	.	.	102
CC(C)(C)S(=O)(=O)c1ccc(S(=O)(=O)C(C)(C)C)cc1	-7	101	91	.
COC(=O)c1ccc(CO/N=C(\N)c2ccc(C(C)(C)C)cc2)o1	-6	89	87	100
COc1ccccc1NC(=O)c1cc(-c2ccc(C)o2)nc2ccccc12	-3	119	90	.
CC(C)(C)c1ccc(-c2nnc(SCC(=O)c3ccccc3)o2)cc1	5	103	112	95
CN1CCN(C(CNC(=O)NC(C)(C)C)c2ccc(F)cc2)CC1 (configuration not stated)	-18	81	93	99
FC(F)(F)c1cccc(OCc2noc(-c3ccsc3)n2)c1	4	98	109	101
Cc1nc(SCC(=O)c2cc3ccccc3oc2=O)c(C#N)c(C)c1C	20	.	.	112
CCNc1c(N)c(=O)oc2ccccc12	.	118	89	103
CCOc1ccc(C(=O)Nc2ccc3oc(-c4ccc(F)cc4)nc3c2)cc1[N+](=O)[O-]	-23	.	.	96
CC(=O)NCCNC(=O)CCCc1nnc2n(C)c(=O)c3sccc3n12	2	96	94	96
CCOC(=O)c1ccccc1NC(=O)Cn1c(=O)n(CCC(=O)NCc2ccccc2OC)c(=O)c2ccccc21	-19	105	91	106
c1ccc(N2CCN(c3ncccn3)CC2)cc1	-15	.	.	103
COc1ccc(C2CC(=O)C3=C(C2)Nc2onc(C)c2C3c2cc(OC)ccc2OC)cc1 (configuration not stated)	-18	.	.	105
CC1(C)Cc2c(c(-c3ccccc3)[nH]c(=O)c2C#N)CO1	-72	122	95	102
O=C1c2ccccc2C(=O)N1Cc1ccc2c(c1)OCO2	1&-26	.	.	103&95
NS(=O)(=O)c1ccc(CCNc2nccn(-c3cccc(C(F)(F)F)c3)c2=O)cc1	.	77	87	99
CCOc1ccc(CNC(=O)c2ccc3c(c2)nc2n3CCCCC2)cc1	.	93	89	105
Cc1nc2ccccc2c(=O)n1CC(C)C	-8	81	103	98
Cc1cc(C)cc(NC(=O)c2cccc(C(=O)Nc3cc(C)cc(C)c3)c2)c1	0	102	102	113
O=C(O)c1cccc(N2C(=O)CCC2=O)c1	-15	98	87	.
CC1Cc2ccccc2N1S(=O)(=O)c1ccc2c(c1)NC(=O)CO2 (configuration not stated)	-21	.	.	110
O=C(NCCCc1ccccc1)Nc1c[nH]c2ccccc2c1=O	-4	97	74	100
COc1ccccc1NC(=O)CN(Cc1ccco1)C(=O)c1ccc(Cl)nc1	-43	96	95	.
CSc1nsc(SC)c1C(=O)O	0	97	81	96
CCOC(=O)c1cnc2c(Cl)c(Cl)ccc2c1Nc1ccc(N(C)C)cc1	0	110	101	105
O=C(c1cc(=O)c2ccccc2o1)N1CCC(CCN2CCCCC2)CC1	-17	.	.	99
COc1cc2c(C#N)c(N3CCCCC3)nc(N)c2c(N)n1	47	107	64	.
O=C(c1cc2c(s1)-c1ccccc1S(=O)(=O)C2)N1CC=C(c2ccccc2)CC1	-23	.	.	106
O=C1C(=Cc2ccc(N3CCCC3)cc2)C(=O)c2ccccc21	-4	62	46	-61*
COCc1cc(C)nc2sc3c(=O)n(-c4ccccc4)nnc3c12	-17	104	89	.
COc1ccc(OC)c(-c2nc(NC(C)=O)c3c(=O)oc4ccccc4c3n2)c1	1	101	102	108
Cc1ccc(Cl)cc1N1CCN(C(=O)Cn2nc(C)n3c(cc4sccc43)c2=O)CC1	6	95	106	106
CCOc1ccccc1C(=O)NCC(=O)Nc1ccc2c(c1)OCO2	-14	103	88	.
COc1ccc(S(=O)(=O)N2CCC(C(=O)Nc3ccccc3)CC2)cc1OC	-37	94	93	109
Cc1c(C(=O)N2CCN(c3ccccc3)CC2)oc2c1C(=O)CCC2	-29	98	95	103
O=C(Cn1ncc(Cl)c(Cl)c1=O)N1CCCC1c1ccc2c(c1)OCCCO2 (configuration not stated)	-74	71	96	.
CC(=O)Nc1nc2ccc(S(=O)(=O)N3CCOCC3)cc2s1	-1	113	94	107
O=C(NCCc1ccccc1Cl)c1ccc2c(c1)nc1n2CCCCC1	.	92	77	97
Cc1ccc(-c2nc(NC(=O)c3snnc3C)sc2C)cc1Cl	-10	102	80	100

Sorted by the number under Sa growth 42C second temp (highest first): 4 of the compounds above
Molecule,Sa growth 42C second temp
CC(C)(C)S(=O)(=O)c1ccc(S(=O)(=O)C(C)(C)C)cc1,91
COCCN=C1SC(C(=O)Nc2cccc(C#N)c2)C(N)=C1C(=O)N1CCN(C)CC1 (configuration not stated),89
COc1ccc(N2CC(C(=O)OC(C)C(=O)c3ccccc3)CC2=O)cc1 (configuration not stated),88
O=C(NC1(C(F)(F)F)Oc2ccc(Cl)cc2O1)N1CCCCC1 (configuration not stated),79

Other compounds follow:
SMILES	HCMV NEC inh	Sa growth 42C	Sa growth 42C second temp	GIV Gai3 FP
O=C1CC(c2ccccc2Cl)NC(=O)N1 (configuration not stated)	-2	95	86	.
CCCc1nc2sc3c(N4CCC(C)CC4)ncnc3c2c2c1CCCC2	-6	98	93	107
COc1cc(C2NC(=O)NC(C)=C2C(=O)OCc2ccccc2)cc(Br)c1O (configuration not stated)	-10	.	.	109
NC(=O)c1cc(S(=O)(=O)NCC2CCC(C(=O)Nc3ccc(Cl)cc3)CC2)cs1 (configuration not stated)	.	65	80	102
O=C1C=C(N2CCOCC2)C(=O)c2ccccc21	.	66	41	94
COc1ccc(OC)c(C2CC(=O)Oc3c2c(=O)n(C)c2ccccc32)c1 (configuration not stated)	-2	98	95	103
CC(C)Nc1nc(Cl)nc(Nc2cccc(C(F)(F)F)c2)n1	-36	.	.	99
CCOC(=O)Cn1c(=O)c(-c2cc([N+](=O)[O-])ccc2NC)nc2cc3ccccc3cc21	-4	.	.	106
COc1ccc(C2CCCCCN2C(=O)c2cccc(N3CCCC3=O)c2)cc1 (configuration not stated)	5	122	104	.
Cc1cccc(NC(=O)CSc2nncc(=O)[nH]2)c1	-7	67	46	103

3 of these compounds in a different format.
canonical_smiles,HCMV NEC inh,Sa growth 42C,Sa growth 42C second temp,GIV Gai3 FP
CC(C)Nc1nc(Cl)nc(Nc2cccc(C(F)(F)F)c2)n1,-36,.,.,99
CCOC(=O)Cn1c(=O)c(-c2cc([N+](=O)[O-])ccc2NC)nc2cc3ccccc3cc21,-4,.,.,106
Cc1cccc(NC(=O)CSc2nncc(=O)[nH]2)c1,-7,67,46,103

An excerpt from above in order of heavy-atom count, high to low:
SMILES	HCMV NEC inh	Sa growth 42C	Sa growth 42C second temp	GIV Gai3 FP
COc1ccccc1NC(=O)c1cc(-c2ccc(C)o2)nc2ccccc12	-3	119	90	.
COc1ccc(NC(=O)CCc2cc(OC)c(OC)c(OC)c2)cc1	.	124	89	106
Cc1ccc2c(c1)cc(C(=O)NCC1CCCO1)n2C (configuration not stated)	-10	.	.	98

The results go on:
SMILES	HCMV NEC inh	Sa growth 42C	Sa growth 42C second temp	GIV Gai3 FP
COc1ccc2[nH]cc(CCNC(C)=O)c2c1	-32&4&1&6&-30&-16	87&88	85&93	100&99&104
N#C/C(=C\N1CCCCC1)S(=O)(=O)c1ccc(Cl)cc1	-6	114	91	102
N#Cc1c(N)n(CCNS(=O)(=O)c2ccccc2)c2nc3ccccc3nc12	-81	110	101	.
Fc1ccc(-n2ncc3c(NC4CCCCCC4)ncnc32)cc1	.	112	97	110
O=C1CCCN1CCP(=O)(O)CN1CCCCC1	-3	98	86	.
Cc1ccc(S(=O)(=O)N2CCCC2c2ccc(Cl)cc2)cc1 (configuration not stated)	-28	.	.	99
CCCOc1ccc(C2C(=O)N(C3CCCCCC3)CC(=O)N2CCC2=CCCCC2)cc1OC (configuration not stated)	.	91	98	107
COC(=O)c1c(NC(=O)c2nc(SCc3ccccc3F)ncc2Cl)sc2c1CCC2	-7	.	.	114
CCCn1c(=O)c2ccc(C(=O)NC(C)C)cc2n2c(=O)n(CC(=O)NC(C)(C)C)nc12	-30	.	.	107
COc1ccccc1C(=O)NCCN1CCCC1	-15	92	77	100
